Source: PubChem (Broad Institute)
Yeast UUG start: yeast start codon fidelity modulation; S. cerevisiae UUG-firefly luciferase reporter, luminescence/redox ratio; 350,000 compounds, 0.13% hits; activity score, % at 18.7 µM; AID 602363;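 active = replicate mean at a twofold rise or more, about +100% in these data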;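 also: firefly luciferase made from a UUG start codon reports start codon fidelity; reporter light over untreated wells divided by growth signal over untreated wells; some hits fall short of that in this replicate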
Starred values were filed as active, the others as inactive; & = joins results of further samples.

Start of the listing, in advance:
Compound | Yeast UUG start
COCC(=O)Nc1ccc2c(c1)[C@H]1C[C@H](CC(=O)N3CCc4ccccc4C3)O[C@H](CO)[C@H]1O2 | 0.5
CO[C@H]1CN(C)C(=O)c2cc(NC(=O)C3CC3)ccc2OC[C@H](C)N(C(=O)c2cnccn2)C[C@@H]1C | -2.0
C[C@H](CO)N1C[C@H](C)[C@H](CN(C)C(=O)Nc2ccc(F)cc2)Oc2c(cccc2N(C)C)C1=O | 6.5

The listing, from the first entry:
Compound | Yeast UUG start
COCC(=O)Nc1ccc2c(c1)[C@H]1C[C@H](CC(=O)N3CCc4ccccc4C3)O[C@H](CO)[C@H]1O2 | 0.5
CO[C@H]1CN(C)C(=O)c2cc(NC(=O)C3CC3)ccc2OC[C@H](C)N(C(=O)c2cnccn2)C[C@@H]1C | -2.0
C[C@H](CO)N1C[C@H](C)[C@H](CN(C)C(=O)Nc2ccc(F)cc2)Oc2c(cccc2N(C)C)C1=O | 6.5
COc1ccccc1-c1ccc2c(c1)[C@H]1[C@H](CCN1S(=O)(=O)c1ccccc1F)[C@@H](CO)N2 | -16.3
Cc1noc(C)c1NC(=O)Nc1ccc2c(c1)C(=O)N([C@@H](C)CO)C[C@H](C)[C@@H](CN(C)Cc1ccncc1)O2 | -12.1
CCNC(=O)C[C@H]1CC[C@H]2[C@@H](COC[C@@H](O)CN2Cc2ccccc2F)O1 | 11.6
O=C(C[C@@H]1CC[C@@H]2NC[C@@H](O)COC[C@H]2O1)NCCc1ccccc1 | -3.7
C[C@H](NC(=O)C[C@H]1CC[C@@H]2[C@H](COC[C@H](O)CN2C(=O)Nc2ccccc2)O1)c1ccccc1 | 0.6
CC(=O)N1[C@H](CO)[C@@H](c2ccccc2)[C@H]1CNC(=O)CN1CCOCC1 | -10.8
CCCC#Cc1ccc([C@@H]2[C@H]3CN(S(=O)(=O)c4ccccc4C)CCCCN3[C@H]2CO)cc1 | -17.5
CNC[C@@H]1Oc2c(NC(=O)c3cc(C)nn3C)cccc2C(=O)N([C@H](C)CO)C[C@@H]1C | -5.2
CO[C@@H]1CN(C)C(=O)c2cc(NC(C)=O)ccc2OC[C@@H](C)N(C(=O)C2CCC2)C[C@H]1C | 1.3
Cc1cccc(-c2ccc([C@@H]3[C@@H](CO)N4CCCCN(C(=O)c5ccncc5)C[C@H]34)cc2)c1 | -10.0
COc1ccc(C#Cc2ccc([C@H]3[C@H]4CN(C)CCCCN4[C@H]3CO)cc2)cc1 | 40.1
Cc1noc(C)c1NC(=O)N(C)C[C@@H]1Oc2ccc(NC(=O)c3ccncc3)cc2C(=O)N([C@@H](C)CO)C[C@@H]1C | -20.1

3 entries already listed, sorted by the number in Yeast UUG start, smallest number first:
mol | Yeast UUG start
O=C(C[C@@H]1CC[C@@H]2NC[C@@H](O)COC[C@H]2O1)NCCc1ccccc1 | -3.7
C[C@H](NC(=O)C[C@H]1CC[C@@H]2[C@H](COC[C@H](O)CN2C(=O)Nc2ccccc2)O1)c1ccccc1 | 0.6
COc1ccc(C#Cc2ccc([C@H]3[C@H]4CN(C)CCCCN4[C@H]3CO)cc2)cc1 | 40.1

New compounds follow:
Compound | Yeast UUG start
COc1ccc(NC(=O)N(C)C[C@@H]2Oc3ccc(NC(=O)CCCN(C)C)cc3C(=O)N([C@@H](C)CO)C[C@@H]2C)cc1 | 23.2
C[C@H](CO)N1C[C@H](C)[C@H](CN(C)C)Oc2ccc(NC(=O)CCC(F)(F)F)cc2CC1=O | -2.3
CN(C)CC(=O)N1[C@@H]2Cn3c(ccc(C4=CCCC4)c3=O)[C@H]1[C@@H](C(=O)NCC1CC1)[C@@H]2CO | 12.2
CO[C@H]1CN(C)C(=O)c2ccc(NC(=O)c3ccccc3F)cc2OC[C@@H](C)N(CC2CCOCC2)C[C@@H]1C | -2.5
C[C@@H]1CN([C@H](C)CO)C(=O)CCCn2nncc2CO[C@H]1CN(C)C(=O)Nc1ccccc1 | 10.3
COc1cccc(-c2ccc([C@H]3[C@H]4CN(CC5CCOCC5)CCCCN4[C@H]3CO)cc2)c1 | -6.0
COCC(=O)Nc1ccc2c(c1)OC[C@@H](C)N(Cc1ccccn1)C[C@H](C)[C@H](OC)CN(C)C2=O | -9.5
CC(C)NC(=O)N(C)C[C@@H]1Oc2ccc(NC(=O)CCC(F)(F)F)cc2C(=O)N([C@@H](C)CO)C[C@H]1C | 9.7
CN1C(=O)c2cc(NC(=O)Nc3ccccc3F)ccc2OC[C@@H]2O[C@@H](CC(=O)NCc3ccc(-c4ccccc4)cc3)CC[C@H]21 | -13.3
O=C(Cc1ccccc1)N1CC[C@@H]2[C@@H](CO)Nc3ccc(-c4ccccc4F)cc3[C@@H]21 | 3.2
C[C@H]1CN([C@@H](C)CO)C(=O)c2cc(NC(=O)Nc3ccc(C(F)(F)F)cc3)ccc2O[C@H]1CN(C)C | -4.4
C[C@H]1CN([C@@H](C)CO)C(=O)c2cccc(NC(=O)C3CCOCC3)c2O[C@H]1CN(C)Cc1ccc(C(F)(F)F)cc1 | -7.4
C[C@H]1CN([C@@H](C)CO)C(=O)Cc2cc(NC(=O)c3ccncc3)ccc2O[C@@H]1CN(C)S(=O)(=O)c1ccc(F)cc1 | -19.7
O=C(CN1CCCC1c1ccc2c(c1)OCCO2)NC(=O)Nc1ccccc1 (stereo unspecified) | -19.0
O=C(O)C[C@H]1C[C@@H]2c3cc(NS(=O)(=O)c4ccccc4)ccc3O[C@@H]2[C@H](CO)O1 | 7.9
Cc1noc(C)c1S(=O)(=O)Nc1ccc2c(c1)C(=O)N([C@H](C)CO)C[C@H](C)[C@@H](CN(C)C(=O)Nc1cccc3ccccc13)O2 | -3.2
CCC(=O)Nc1ccc2c(c1)C(=O)N(C)C[C@@H](OC)[C@H](C)CN(Cc1cccnc1)[C@H](C)CO2 | -0.2
COc1ccc(C(=O)N2C[C@H]3[C@@H](c4ccccc42)[C@@H](CO)N3Cc2ccc3c(c2)OCO3)cc1 | -5.6
COc1ccccc1CN1CC[C@@H]2[C@H](CO)Nc3ccc(-c4cccc(C(=O)N(C)C)c4)cc3[C@@H]21 | -0.5
CN(C)CC#Cc1ccc([C@H]2[C@@H](CO)N3CCCCN(C(=O)CN(C)C)C[C@@H]23)cc1 | 15.4
CN1c2ccc(-c3ccccc3)cc2[C@@H]2[C@@H](CCN2C(=O)c2ccccc2)[C@@H]1CO | 1.3
CC(C)NC(=O)N1CCCCN2[C@H](CO)[C@H](c3ccc(C#C[C@@H](C)O)cc3)[C@H]2C1 | -10.1
O=C(C[C@@H]1CC[C@@H]2[C@H](COC[C@H](O)CN2S(=O)(=O)c2ccc(F)cc2)O1)NCc1ccc(Cl)c(Cl)c1 | -0.1
COc1ccc(S(=O)(=O)N(C)C[C@@H]2Oc3ccc(NC(=O)Nc4c(C)noc4C)cc3C(=O)N([C@H](C)CO)C[C@H]2C)cc1 | -9.3
COCC(=O)Nc1ccc2c(c1)C(=O)N(C)C[C@@H](OC)[C@H](C)CN(C(=O)c1cnccn1)[C@H](C)CO2 | 4.8
C[C@H]1CN([C@@H](C)CO)C(=O)c2cccc(NC(=O)C3CCOCC3)c2O[C@H]1CN(C)Cc1ccc(C(=O)Nc2ccccc2N)cc1 | -3.5
CCCNC(=O)[C@H]1[C@H](CO)[C@H]2Cn3c(ccc(-c4ccc(C(=O)N(C)C)cc4)c3=O)[C@H]2N1CCC | 13.5
Cc1ccccc1S(=O)(=O)N1C[C@@H]2[C@H](c3ccccc31)[C@@H](CO)N2C(=O)CC1CC1 | 29.2
C[C@H]1CN([C@@H](C)CO)C(=O)Cc2cc(NC(=O)NC3CCCCC3)ccc2O[C@@H]1CN(C)Cc1ccc(C(=O)O)cc1 | -9.3
CCC(=O)N1CC[C@@H]2[C@@H](CO)N(C)c3ccc(-c4cccc(F)c4)cc3[C@@H]21 | 16.3
C[C@@H]1CN([C@H](C)CO)C(=O)c2cccc(NC(=O)c3ccc(-c4nccs4)cc3)c2O[C@H]1CN(C)Cc1ccncc1 | 18.0
CCCNC(=O)N1[C@@H](CO)[C@H](c2ccccc2)[C@@H]1CNC(=O)c1ccc(F)cc1 | 3.7
O=C(C1CC1)N1CCCCN2[C@@H](CO)[C@@H](c3ccc(C#CC4CCCC4)cc3)[C@@H]2C1 | 1.5
COCC(=O)Nc1ccc2c(c1)C(=O)N(C)C[C@@H](OC)[C@@H](C)CN(Cc1cncnc1)[C@H](C)CO2 | -2.2
C[C@@H]1CN([C@@H](C)CO)C(=O)c2cccc(NC(=O)Nc3ccc(C(F)(F)F)cc3)c2O[C@H]1CN(C)Cc1ccncc1 | 0.9
C/C=C/c1ccc([C@H]2[C@@H](CO)N3CCCCN(C(=O)Nc4cc(F)ccc4F)C[C@@H]23)cc1 | 31.4
C[C@@H]1CN([C@H](C)CO)C(=O)c2cccc(NC(=O)c3cnccn3)c2O[C@@H]1CN(C)Cc1ccc(-c2ccccc2)cc1 | 2.6
CC(C)C#Cc1ccc([C@@H]2[C@@H](CO)N3CCCCN(C(=O)Nc4ccccc4)C[C@H]23)cc1 | 4.4
O=C(CC1CC1)Nc1ccc2c(c1)[C@H]1C[C@H](CC(=O)N3CCOCC3)O[C@H](CO)[C@H]1O2 | 4.2
CCCNC(=O)N1C[C@H]2[C@@H](c3ccccc31)[C@H](CO)N2CC1CCCCC1 | 0.7
CS(=O)(=O)Nc1ccc2c(c1)[C@H]1C[C@@H](CC(=O)NCc3ccc(-c4ccccc4)cc3)O[C@@H](CO)[C@H]1O2 | 6.4
Cc1cccc(S(=O)(=O)N(C)C[C@@H]2OCc3ccccc3-c3ccccc3C(=O)N([C@@H](C)CO)C[C@H]2C)c1 | 26.6
CCCNC(=O)C[C@@H]1CC[C@H]2[C@@H](COC[C@@H](O)CN2C(=O)c2cc(Cl)cc(Cl)c2)O1 | -3.1
CCC(=O)N1CCCCN2[C@H](C1)[C@@H](c1ccc(C#Cc3ccccc3)cc1)[C@@H]2CO | -1.4
C[C@H]1CN([C@@H](C)CO)C(=O)c2cc(NC(=O)Nc3cccc4ccccc34)ccc2O[C@H]1CN(C)S(=O)(=O)c1cn(C)cn1 | 37.3
C/C=C/c1ccc([C@H]2[C@@H](CO)N(C(C)=O)[C@@H]2CN(CCC)C(C)=O)cc1 | -1.4&-1.2
CC(=O)NC[C@@H]1[C@H](c2ccc(-c3cccc(F)c3)cc2)[C@@H](CO)N1C(C)=O | -3.8
CO[C@@H]1CN(C)C(=O)c2ccc(NS(C)(=O)=O)cc2OC[C@@H](C)N(C(=O)CC2CC2)C[C@H]1C | -7.4
COc1ccc(NC(=O)N(C)C[C@@H]2Oc3ccc(NS(=O)(=O)c4cccs4)cc3C(=O)N([C@@H](C)CO)C[C@@H]2C)cc1 | -6.7
O=C(C[C@@H]1CC[C@@H]2[C@H](COC[C@@H](O)CN2S(=O)(=O)c2ccc(Cl)cc2)O1)NCCN1CCCC1 | -3.4
CN(C)C(=O)C[C@@H]1C[C@@H]2c3cc(NS(=O)(=O)c4ccccc4)ccc3O[C@@H]2[C@@H](CO)O1 | -6.2
COC(=O)[C@@H]1[C@@H](CO)[C@@H]2Cn3c(ccc(-c4cccc(F)c4)c3=O)[C@@H]2N1CC1CC1 | -5.1
CC(=O)N(C[C@H]1N[C@H](CO)[C@H]1c1ccc(-c2ccc(F)cc2)cc1)C(C)C | -2.5
COCC(=O)Nc1ccc2c(c1)C(=O)N(C)C[C@H](OC)[C@@H](C)CN(Cc1ccccc1OC)[C@H](C)CO2 | 0.7
CO[C@@H]1CN(C)C(=O)c2ccc(NS(C)(=O)=O)cc2OC[C@@H](C)N(C(=O)C2CC2)C[C@@H]1C | 11.1
O=C(NC[C@@H]1[C@H](c2ccccc2)[C@@H](CO)N1C(=O)C1CCC1)NC1CCCC1 | -1.6
O=C(c1ccncc1)N1CCCCN2[C@H](C1)[C@@H](c1ccc(-c3ccccc3)cc1)[C@@H]2CO | -3.6
CO[C@H]1CN(C)C(=O)c2ccc(NC(=O)C3CCC3)cc2OC[C@H](C)N(Cc2cccnc2)C[C@H]1C | 13.2
Cc1ccc(S(=O)(=O)N2C[C@H](O)COC[C@@H]3O[C@H](CC(=O)N[C@@H]4CCN(Cc5ccccc5)C4)CC[C@H]32)cc1 | 1.3
O=C(Nc1nccs1)[C@H]1[C@H](CO)[C@H]2Cn3c(cccc3=O)[C@H]2N1C(=O)C1CCC1 | -2.7

Continued:
Compound | Yeast UUG start
Cc1noc(C)c1NC(=O)N(C)C[C@H]1Oc2c(NC(=O)c3ccncc3)cccc2C(=O)N([C@@H](C)CO)C[C@H]1C | 2.0
O=C(C[C@@H]1CC[C@H]2[C@@H](COC[C@H](O)CN2C(=O)c2ccccc2F)O1)N1CCN(c2ccccc2)CC1 | 9.6
CC(=O)N(C)C[C@H]1[C@H](c2ccc(C3=CCCCC3)cc2)[C@H](CO)N1CC1CC1 | 12.4
CCCC(=O)Nc1ccc2c(c1)OC[C@H](C)N(C(=O)c1cnccn1)C[C@H](C)[C@H](OC)CN(C)C2=O | -10.6
C[C@H]1CN([C@@H](C)CO)C(=O)Cc2cc(NC(=O)Nc3ccc(F)cc3)ccc2O[C@@H]1CN(C)C(=O)Nc1ccccc1 | -7.0
CCN(C[C@H]1[C@H](c2ccccc2)[C@H](CO)N1C(=O)COC)S(C)(=O)=O | -11.6
COc1ccc(NC(=O)N(C)C[C@@H]2Oc3ccc(NC(=O)NC(C)C)cc3C(=O)N([C@@H](C)CO)C[C@H]2C)cc1 | 6.7
O=S(=O)(c1cccs1)N1CCCCN2[C@H](CO)[C@H](c3ccc(-c4ccccc4)cc3)[C@@H]2C1 | 0.4
CCN1[C@H](C(=O)Nc2nccs2)[C@@H](CO)[C@@H]2Cn3c(ccc(-c4ccccc4OC)c3=O)[C@@H]21 | 3.4
Cc1ccccc1S(=O)(=O)N1CC[C@@H]2[C@H]1c1cc(Br)ccc1N(C)[C@H]2CO | -1.9
O=C(C[C@H]1CC[C@@H]2[C@H](COC[C@@H](O)CN2CC2CCOCC2)O1)N1CCOCC1 | -5.4
CCN(C[C@H]1N[C@@H](CO)[C@@H]1c1ccc(C2=CCCC2)cc1)C(=O)c1cccnc1 | -1.2
C[C@@H]1CN([C@H](C)CO)C(=O)c2cc(NC(=O)Nc3ccc(F)cc3)ccc2O[C@H]1CN(C)S(=O)(=O)c1cccs1 | -2.5

Some of the compounds tested, so the mix of outcomes need not match the whole.
